Source: PubChem
D2 ag: activates the human D2 dopamine receptor. P14416. DiscoveRx PathHunter D2 beta-arrestin, luminescence, 90 min; 100% = 57 uM dopamine signal. activation, % (test concentration not listed). actives 0.084% (n = 360,000). AID 624465; in the data active = activation above about 40%; inconclusive = about 15% to 40%; inactive = below about 15%; further: compound concentration not given in the record; the text of the record calls up to 30% inactive
Target sequence (P14416 whole entry, looked up): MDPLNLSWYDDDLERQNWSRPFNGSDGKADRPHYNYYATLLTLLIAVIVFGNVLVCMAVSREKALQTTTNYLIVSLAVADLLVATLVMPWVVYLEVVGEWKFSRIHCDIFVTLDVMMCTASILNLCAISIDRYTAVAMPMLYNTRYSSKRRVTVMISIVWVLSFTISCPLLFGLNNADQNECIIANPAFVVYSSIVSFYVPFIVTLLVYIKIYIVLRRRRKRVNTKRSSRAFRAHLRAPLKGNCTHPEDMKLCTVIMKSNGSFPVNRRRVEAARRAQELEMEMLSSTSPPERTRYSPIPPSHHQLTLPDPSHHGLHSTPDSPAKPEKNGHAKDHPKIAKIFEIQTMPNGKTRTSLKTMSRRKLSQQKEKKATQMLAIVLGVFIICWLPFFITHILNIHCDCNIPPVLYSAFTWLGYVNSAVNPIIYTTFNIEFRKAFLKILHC
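DiscoveRx PathHunter D2 beta-arrestin cells (2,100/well) attached overnight, then compound-stimulated 90 min at 37 C in HBSS/10 mM HEPES/0.1% Tween-20 buffer; beta-galactosidase complementation read by luminescence after 1 h at ambient temperature. Dopamine 57 uM final (EC100) as control.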
gsp antagonist: gsp mutant antagonism; actives 0.4% (n = 340,000); AID 624288; Potency, µM (series often up to 76.9 µM), for inactives: at the highest dose activity change, negative = inhibition, actives largely listed as inhibitors; gsp-mutant cells, cAMP HTRF, 30 min; control for the full effect not named in the record; active = falling curve of any shape with a large fitted effect; inconclusive = falling curve, mostly with a smaller effect; inactive = flat or rising curve; cell line not stated here;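 further: intracellular cAMP measured with PDE inhibitor Ro 20-1724 present during compound exposure; potency means the concentration at half of the fitted maximal effect; on the % scale 0 is the no-effect control and ±100 the full control effect; nearly all actives have a fitted effect of over 65% in size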
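HTRF cAMP measurement after 30 min RT detection following 30 min, 37C compound treatment alongside […] (added as 300 uM solution) in G418-selected cells seeded at 2000/well and grown 16–24 h.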
Sfp PPTase inh: blocks B. subtilis Sfp PPTase activity; Potency, µM, for inactives: max response, negative = inhibition, most hits filed as inhibitors; AID 1490; actives 3.5% (n = 310,000); Q9F4F7; Biochemical Sfp PPTase activity, qHTS; active means well fitted inhibition curve with a large enough effect; inconclusive means small, poorly fitted or top-dose-only effect, or another doubt; inactive means no such curve, though single readings can be large or run the other way;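 further: the enzyme is Sfp with the accession as filed and its product quenches rhodamine fluorescence; potency means the concentration at half of the fitted maximal effect; 0% = enzyme reaction without inhibitor and -100% = no enzyme wells; top concentration of the series not given in the record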
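Step 1, compound plus 15 nM Sfp-PPTase, 15 min, room temperature. Step 2, add rhodamine-CoA (5 uM) and BHQ-2-YbbR (12.5 uM). Step 3, read 525/598 nm fluorescence at 0 and 30 min.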
ClpP mod: qHTS Assay for Activators of ClpP; Potency, µM (series often up to 57.5 µM), inactives show at the top dose activity change, negative = active; purified B. subtilis ClpP, FRET peptide cleavage, 20 min; ATP-dependent Clp protease proteolytic subunit (Bacillus subtilis (strain 168)), P80244; actives 1.9% (n = 340,000); active = well fitted falling curve with a large enough effect; inconclusive = small, poorly fitted or top-dose-only effect; inactive = no such curve, though single readings can be large or run the other way; further: potency means the concentration at half of the fitted maximal effect; the source files actives as falling curves though it sought activators and does not explain the sign; nearly all actives have a fitted effect of over 65% in size; many hits overshoot -100%
Target sequence (P80244 whole entry, looked up): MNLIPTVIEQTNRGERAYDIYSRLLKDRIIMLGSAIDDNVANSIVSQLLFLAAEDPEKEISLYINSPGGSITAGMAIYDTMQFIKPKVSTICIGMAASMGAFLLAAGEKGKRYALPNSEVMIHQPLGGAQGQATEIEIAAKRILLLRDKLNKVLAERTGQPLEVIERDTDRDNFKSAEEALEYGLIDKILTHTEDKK
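Buffer: 100 mM Tris/HCl pH8, 100 mM KCl, 0.05% low protease BSA, 2.5% glycerol, 0.01% Tween-20. ClpP 10 microg/mL final; 20 min RT; delta FRET normalized to ADEP and DMSO controls.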
PINK1 expr mod: modulators of PINK1 expression. PINK1 immunofluorescence, high-content cytometry, 24 h. Potency, µM (doses to about 76.6 µM), for inactives: at the top dose activation (PINK1 increase), usual class: activators. actives 0.2% (n = 410,000). AID 624263; active = well fitted activation curve with a large enough effect; inconclusive = small, poorly fitted or top-dose-only effect; inactive = flat fitted curve, though single readings scatter; cell line not stated here;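 further: potency means the concentration at half of the fitted maximal effect; % of control where 0% means no effect; nearly all actives have a fitted effect of over 65% in size; a mitochondrial uncoupler was the plate control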
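PINK1 protein level read as immunofluorescence by microplate cytometer in a fixed, stained stable cell line after 24 h exposure to five compound concentrations, with CCCP as control.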
Menin MLL FP FL: displaces fluorescein MLL peptide from human menin; AID 1766; Fluorescence polarization, fluorescein-MLL peptide displacement from menin; FP activity change, % at 61.4 µM; 290,000 tested, under 10 active; inconclusive = falling polarisation curve, or a change in total fluorescence; inactive = total fluorescence flat and polarisation flat or rising; no compound was filed as active; the % refers to the polarisation; negative = inhibition;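 further: % of control where 0% means no effect; inhibitors lower the polarisation; unlabelled MLL peptide was the positive control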
gsp ag: agonists of gsp mutant (McCune-Albright syndrome); AID 624287; gsp mutant cells, cAMP HTRF, 30 min; control for the full effect not named in the record; Potency, µM (top dose mostly 76.9 µM), without a hit: at the highest dose activation (cAMP increase), usual class: activators; actives 0.13% (n = 340,000); active = well fitted activation curve with a large enough effect; inconclusive = small, poorly fitted or top-dose-only effect, or another doubt; inactive = no such curve, though single readings can be large or run the other way; cell line not stated here;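 further: phosphodiesterase inhibitor Ro 20-1724 added with compounds to block cAMP breakdown; potency means the concentration at half of the fitted maximal effect; nearly all actives have a fitted effect of over 60% in size; about a fifth of the inactives were tested at one dose only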
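Cells in DMEM/10% FBS with G418 were pretreated with compounds in DMSO plus […] (300 uM stock) for 30 min at 37C. cAMP was measured by HTRF (cAMP-d2 plus anti-cAMP antibody-K) after 30 min at room temperature.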
Numbers without * were called inactive; ? = inconclusive; . = not tested or not shown; [ ] = another dose, or the depositor's remark.

entry	molecule	D2 ag	gsp antagonist	Sfp PPTase inh	ClpP mod	PINK1 expr mod	Menin MLL FP FL	gsp ag
1	O=C(Nc1ccn(Cc2ccccc2)n1)c1cccc(Cn2cc([N+](=O)[O-])cn2)c1	0.3	3%	7%	0.8%	-0.8%	7.0	-40%[inhibitor]
2	O=C(c1ccccc1F)N1CCN(c2ccc([N+](=O)[O-])cc2-n2cccc2)CC1	3.0	?	-12%	0.5%	5.4%	3.2	24%
3	Cc1cc([N+](=O)[O-])c(NCCCCCCO)c([N+](=O)[O-])c1	-2.0	0%	.	0.8%	-1.1%	.	-66%[inhibitor]
4	Cc1ccc(N/C(=C\C(=O)c2ccccc2)C(=O)O)cc1	-5.2	-3%	-19%	.	1.8%	17	-15%[15.4 µM]
5	COc1ccc2c(c1)cc(C(O)c1ccccn1)n2S(=O)(=O)c1ccccc1 (centres undefined)	-0.3	3%	-2%	-18%	2.1%	1.7	4%
6	O=C1CN(C(=O)c2cc(F)cc(F)c2)c2ccccc2N1	-4.3	10%	17%	.	4.2%	3.1	13%[15.4 µM]
7	O=C(C1CCN(S(=O)(=O)c2cccs2)CC1)N1CCCC(C(F)(F)F)C1 (centres undefined)	-2.3	6%	15%	-0.9%	1.0%	.	-40%[inhibitor]
8	Clc1ccccc1-c1nnc2sc(C3COc4ccccc4O3)nn12 (centres undefined)	-4.5	0%	18µM*	-2.2%	-3.4%[38.3 µM]	-2.0	17%
9	Cc1cc(C(=O)Nc2ccccc2)oc(=O)c1	0.6	-1%	6%	.	-0.5%	4.0	15%[15.4 µM]
10	Cc1ccnc(NS(=O)(=O)c2ccc(NC(=O)/C=C/c3cccs3)cc2)n1	-5.9	-14%	27%	-3.4%	-1.2%	-6.9	-79%
11	COc1cccc(CC(NC(C)=O)C(=O)NC2CCN(C(=O)C3CCCCC3)CC2)c1OC (centres undefined)	-0.5	-5%	27%	-24%	3.4%	1.7	21%[15.4 µM]
12	CCN1CCN(C(=O)CS(=O)Cc2nc(-c3cccc(C)c3)oc2C)CC1 (centres undefined)	2.5	4%	-4%	-6.4%	-1.1%	-1.8	?
13	CN(CCOc1ccccc1)C(=O)c1cc(S(=O)(=O)N2CCOCC2)c(Cl)cc1Cl	0.8	.	.	-0.5%	1.1%	.	0%
14	C/C(CC(=O)Nc1ccc2c(c1)OCO2)=N\NC(=O)c1ccccc1N	2.0	-2%	-10%	.	-0.7%	-0.7	-10%[15.4 µM]
15	Cc1ccccc1CC1SC(N=C(N)N)=NC1=O (centres undefined)	2.1	4%	8%	0.2%	0.8%	1.4	9%[15.4 µM]
16	CCN(c1ccccc1)S(=O)(=O)c1cc(OC)ccc1OC	-3.8	3%	2%	0.8%	7.6%[38.3 µM]	4.9	-4%
17	CCc1cccc(C)c1NC(=O)CSc1nnc(-c2cc3cc(Br)ccc3o2)n1CC	-1.5	?	2%	?	-1.7%	1.1	2%
18	COc1ccc(CCNC(=O)CS(=O)(=O)Cc2nc(-c3ccc(C)cc3)oc2C)cc1OC	-2.7	-5%	2%	.	1.7%	-2.0	31%[15.4 µM]
19	COc1cc(/C=C/C(=O)N2CCN(C)CC2)cc(S(=O)(=O)N2CCc3ccccc32)c1OC	-6.1	-23%	18%	-1.2%	1.9%	-0.3	-48%[inhibitor]
20	COc1ccc(CCNC(=O)CCCn2c(=S)[nH]c3ccsc3c2=O)cc1OC	-4.3	.	.	-4.1%	-0.3%	.	-35%[inhibitor]
21	O=S(=O)(Nc1nc2cc3c(cc2nc1Cl)OCCO3)c1ccccc1	11	18%	2%	4.0%	-0.9%	3.1	?
22	CCCCn1c(=O)[nH]c(=O)c2c(C(=O)OCC)cc(-c3ccc(OC(F)F)cc3)nc21	-9.0	3%	-16%	3.8%	1.4%	21	?
23	C=CCn1c(=NC(=O)c2ccccc2[N+](=O)[O-])sc2cc(S(C)(=O)=O)ccc21	?	-16%	-8%	-2.1%	3.9%	3.4	5%
24	Cc1sc2nc[nH]c(=O)c2c1-c1ccc(F)cc1	-2.9	6%	7%	-1.9%	-2.3%	0.5	-95%[inhibitor]
25	COc1ccc(NC(=O)c2c(C)noc2C(C)C)cc1S(=O)(=O)N1CCCCC1	2.1	10%	.	1.2%	2.0%	.	8%
26	CCOC(=O)C1CCN(CC(=O)N2CCc3ccccc32)CC1	-1.4	3%	4%	.	-1.3%	-1.2	-1%
27	COc1cccc(NC(=O)CSc2nnc(Cc3ccc(C)cc3)c(=O)n2N)c1	-2.4	-6%	.	-20%	7.5%	.	15%
28	CN(C)CCCOc1ccc(-c2ccc3nccn3c2)cn1	-0.6	.	.	-24%	1.4%	.	.
29	CC(=O)c1cnc(-c2ccccn2)s1	-5.8	0%	-28%	.	1.8%	-0.4	15%[15.4 µM]
30	Cc1ccc(S(=O)(=O)N2CC(O)C[C@H]2C(=O)OCC(=O)Nc2ccc(N3CCCCC3)cc2)cc1C (some centres undefined)	-1.3	16%	.	?	0.5%	.	19%
31	CC(=O)Nc1ccc(C(=O)COC(=O)c2c(C)noc2C)c(F)c1	1.2	-3%	.	0.7%	0.1%	.	-3%
32	C=CCN1C(=O)c2cccc3c(N4CCCCC4)ccc(c23)C1=O	3.1	-16%	19%	.	21%	?	7%
33	O=C(Nc1ccc(F)cc1)N1CCC(c2nc3c(nnn3Cc3ccccc3Cl)c(=O)[nH]2)CC1	-3.3	-24%	-11%	.	0.6%	1.5	8%[15.4 µM]
34	CC(C)(CO)NC(=O)C(Cc1ccccc1)N1C(=O)c2ccccc2C1=O (centres undefined)	-2.3	8%	13%	-1.5%	4.8%	2.0	16%
35	c1ccc(N2CC[N+]3(CCCC3)CC2)nc1	-1.1	5%	-4%	-25%	2.9%[38.3 µM]	-6.3	-36%
36	N#Cc1cnn2ccc(-c3ccc4c(c3)CCC4)nc12	-5.8	-2%	16%	4.2%	0.0%	-5.3	-3%
37	CCCCNc1c(-c2ccc(OC)c(SC(C)CC)c2)nc2ccc(Cl)cn12 (centres undefined)	12	-21%	.	-8.1%	26%	.	5%
38	CCOC(=O)c1c(C)c(C(=O)NCc2cccnc2)c(C)n1C	-1.0	0%	10%	-3.0%	8.5%[38.3 µM]	-1.4	-1%
39	CCc1nc2c(OCc3ccc(F)c(F)c3)cccn2c1N(C)C(=O)c1ccncc1	-1.1	.	.	-0.5%	-0.9%	.	.
40	C=CCn1c(-c2ccccc2)c[nH]c1=S	-5.3	1%	79µM*	?	3.1%	1.1	12%
41	COc1ccc(CCNC(=O)C2CC2)cc1OC	3.1	8%	19%	-0.9%	.	5.1	-21%
42	Cc1sc2ncnc(SCC#N)c2c1C	2.5	13%	-20%	2.4%	-5.6%[38.3 µM]	?	44%
43	COc1ccc(Cc2c3cc(OC)c(OC)cc3cc[n+]2C)cc1OC	4.7	-1%	79µM*	-7.5%	0.8%	2.4	-48%[inhibitor]
44	CCCCn1c(N)c(N(CC(C)C)C(=O)c2ccc(Cl)c(S(=O)(=O)N3CCCC3)c2)c(=O)[nH]c1=O	1.1	5%	.	-9.7%	-0.2%	.	-13%
45	COc1ccc(Oc2ccc(-c3ccn[nH]3)cc2)cc1	2.6	0%	0%	-29%	7.3%	5.9	-1%[15.4 µM]
46	Cn1nnnc1SCC(=O)N1CCN(S(=O)(=O)c2ccc(Cl)cc2)CC1	0.7	-9%	24%	.	-0.7%	-2.8	-42%[inhibitor]
47	O=C(Nc1ccccn1)c1cc(-c2cccc(Cl)c2)nc2ccccc12	1.6	6%	2%	.	15%	-0.7	31%[15.4 µM]
48	Cc1ccc(S(=O)(=O)NCCC(=O)OCC(=O)N2CCCC2=O)cc1C	-6.5	-10%	.	2.1%	1.7%	.	7%
49	Cc1ccc(NC(=O)CCCNC(=O)c2ccc(Cl)cc2)c(Br)c1	-0.8	4%	13%	0.3%	4.6%	-12	-10%[15.4 µM]
50	Cc1cccc(OCC(O)CN2C(C)(C)CC(O)CC2(C)C)c1C (centres undefined)	-4.1	-1%	9%	0.0%	-0.1%	15	?
51	CCCOc1ccc(F)cc1-c1cc(C(=O)Nc2ccc(OC)cc2C)[nH]n1	10	.	.	-10%	2.5%	.	.
52	CCN(CC)S(=O)(=O)c1ccc(N(C)CCc2ccc(OC)c(OC)c2)nc1	-1.0	-23%	-6%	0.9%	0.0%	-1.7	-3%[15.4 µM]
53	CCc1ccc(OCC(=O)Nc2ccncc2)cc1	-1.9	-7%	15%	-0.4%	0.2%	-1.3	-8%
54	CCCCn1c(S(=O)(=O)O)nc2ccccc21	5.4	-5%	4%	-2.9%	-0.9%	2.4	22%
55	CC1CCC(N2CCN(c3ncccn3)CC2)C1 (centres undefined)	6.9	5%	-1%	-13%	2.0%	-6.4	4%
56	O=C(C[n+]1ccc2ccccc2c1)c1cccc2ccccc12	-2.8	5%	-13%	-3.7%	0.3%	-16	-83%[inhibitor]
57	C[C@H]1CN(S(=O)C(C)(C)C)[C@@H](CCO)/C1=C\c1ccccc1 (some centres undefined)	-2.1	-2%	.	-1.1%	0.1%	.	.
58	COC(CNc1ncnc2sc(-c3ccccc3)cc12)OC	-0.7	-3%	2%	4.0%	0.3%	-0.3	5%
59	COc1ccccc1N1CCN(C2CCN(S(=O)(=O)c3ccc(C)cc3)CC2)CC1	3.5	-3%	3%	.	-1.0%	-0.9	9%[15.4 µM]
